Screening results as filed in PubChem.
Sfp PPTase inh = blocks B. subtilis Sfp PPTase activity. Q9F4F7. Biochemical Sfp PPTase activity, qHTS. Potency, µM, inactives show max response, negative = inhibition, actives largely listed as inhibitors. 3.5% of 310,000 active. AID 1490; active = well fitted inhibition curve with a large enough effect; inconclusive = small, poorly fitted or top-dose-only effect, or another doubt; inactive = no such curve, though single readings can be large or run the other way;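 note: the enzyme is Sfp with the accession as filed and its product quenches rhodamine fluorescence; potency is the fitted concentration of half-maximal effect; 0% = enzyme reaction without inhibitor and -100% = no enzyme wells; top concentration of the series not given in the record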
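With Hepes-Na pH 7.6 buffer containing 10 mM MgCl2, Sfp (15 nM) modified BHQ-2-YbbR (12.5 uM) using rhodamine-CoA (5 uM). Two reads 30 minutes apart at 525/598 nm yielded each well's rate.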
gsp agonist = activates gsp, the McCune-Albright syndrome mutation; Potency, µM (series often up to 76.9 µM), without a hit: at the top dose activation (cAMP increase), usual class: activators; 0.13% of 340,000 active; gsp mutant cells, cAMP HTRF, 30 min; control for the full effect not named in the record; AID 624287; active = well fitted activation curve with a large enough effect; inconclusive = small, poorly fitted or top-dose-only effect, or another doubt; inactive = no such curve, though single readings can be large or run the other way; cell line not stated here;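 note: phosphodiesterase inhibitor Ro 20-1724 added with compounds to block cAMP breakdown; potency is the fitted concentration of half-maximal effect; nearly all actives have a fitted effect of over 60% in size; about a fifth of the inactives were tested at one dose only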
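Cells stably selected in G418 were plated at 2000/well, grown 16-24 hr, then given compounds in DMSO with the PDE inhibitor […] (300 uM solution added) for 30 min at 37C; cAMP was read by HTRF.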
gsp antag = antagonizes gsp, the McCune-Albright syndrome mutation; gsp-mutant cells, cAMP HTRF, 30 min; control for the full effect not named in the record; Potency, µM (doses to about 76.9 µM), inactives show at the top dose activity change, negative = inhibition, most hits filed as inhibitors; 0.4% of 340,000 active; active = falling curve of any shape with a large fitted effect; inconclusive = falling curve, mostly with a smaller effect; inactive = flat or rising curve; cell line not stated here;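 note: intracellular cAMP measured with PDE inhibitor Ro 20-1724 present during compound exposure; potency is the fitted concentration of half-maximal effect; % is set by controls: 0 for no effect and ±100 for the full control effect; nearly all actives have a fitted effect of over 65% in size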
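Measurement of cellular cAMP by homogeneous time-resolved fluorescence following a 30 min compound exposure at 37C. The PDE inhibitor […] was present throughout; the assay buffer was DPBS with 0.05% BSA and 0.005% Tween 20.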
D2 ag = human D2 receptor agonism in beta-arrestin assay | P14416 | DiscoveRx PathHunter D2 beta-arrestin, luminescence, 90 min; 100% = 57 uM dopamine signal | activation, % (no concentration beside the values) | 0.084% of 360,000 active | AID 624465; in the data active = activation above about 40%; inconclusive = about 15% to 40%; inactive = below about 15%; note: compound concentration not given in the record; the text of the record calls up to 30% inactive
Target sequence (P14416 whole entry, looked up): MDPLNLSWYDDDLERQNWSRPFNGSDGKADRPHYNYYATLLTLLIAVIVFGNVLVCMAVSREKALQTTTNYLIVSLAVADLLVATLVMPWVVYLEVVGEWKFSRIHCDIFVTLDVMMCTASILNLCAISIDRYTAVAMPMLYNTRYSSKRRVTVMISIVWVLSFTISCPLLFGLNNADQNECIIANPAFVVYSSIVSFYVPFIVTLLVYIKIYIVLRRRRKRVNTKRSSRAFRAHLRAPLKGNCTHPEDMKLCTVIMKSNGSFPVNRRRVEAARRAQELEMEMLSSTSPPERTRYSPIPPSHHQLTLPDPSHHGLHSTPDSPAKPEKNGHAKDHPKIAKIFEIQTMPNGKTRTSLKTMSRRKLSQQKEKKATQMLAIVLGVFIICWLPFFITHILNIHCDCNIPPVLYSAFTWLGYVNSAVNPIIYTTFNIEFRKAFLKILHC
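DiscoveRx PathHunter D2 beta-arrestin cells (2,100/well) attached overnight, then compound-stimulated 90 min at 37 C in HBSS/10 mM HEPES/0.1% Tween-20 buffer; beta-galactosidase complementation read by luminescence after 1 h at ambient temperature. Dopamine 57 uM final (EC100) as control.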
ClpP mod = qHTS Assay for Activators of ClpP | ATP-dependent Clp protease proteolytic subunit (Bacillus subtilis (strain 168)), P80244 | purified B. subtilis ClpP, FRET peptide cleavage, 20 min | Potency, µM (top dose mostly 57.5 µM), inactives show at the highest dose activity change, negative = active | 1.9% of 340,000 active | AID 651965, 2013; active = well fitted falling curve with a large enough effect; inconclusive = small, poorly fitted or top-dose-only effect; inactive = no such curve, though single readings can be large or run the other way; note: potency is the fitted concentration of half-maximal effect; the source files actives as falling curves though it sought activators and does not explain the sign; nearly all actives have a fitted effect of over 65% in size; many hits overshoot -100%
Target sequence (P80244 whole entry, looked up): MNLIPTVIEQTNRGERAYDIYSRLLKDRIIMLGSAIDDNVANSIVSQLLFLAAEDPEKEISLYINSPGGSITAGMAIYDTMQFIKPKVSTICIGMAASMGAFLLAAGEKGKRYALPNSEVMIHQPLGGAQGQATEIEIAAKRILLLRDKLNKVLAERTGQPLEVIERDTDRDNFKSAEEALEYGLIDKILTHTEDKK
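Purified B. subtilis ClpP, 10 microg/mL final in Tris/HCl pH8 with KCl, BSA, glycerol and Tween-20, cleaved an Abz/nitrotyrosine-quenched decapeptide. Fluorescence (ex 320, em 430) was read at 0 and 20 min at room temperature. Delta was normalized to 5.8 microM ADEP and DMSO/no-enzyme controls.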
PINK1 modulator = modulators of PINK1 expression; 0.2% of 410,000 active; PINK1 immunofluorescence, high-content cytometry, 24 h; AID 624263; Potency, µM (titrated, usually from 76.6 µM), without a hit: top-dose activation (PINK1 increase), most hits filed as activators; active = well fitted activation curve with a large enough effect; inconclusive = small, poorly fitted or top-dose-only effect; inactive = flat fitted curve, though single readings scatter; cell line not stated here;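 note: potency is the fitted concentration of half-maximal effect; % of control where 0% means no effect; nearly all actives have a fitted effect of over 65% in size; a mitochondrial uncoupler was the plate control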
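Readout is PINK1 immunofluorescence, quantified alongside mitochondrial, cell and nuclear markers by laser-scanning microplate cytometry. Cells from a stable line were exposed to compound titrations (5 concentrations) for 24 hours, with CCCP controls.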
Menin-MLL FL inh = displaces fluorescein MLL peptide from human menin | Fluorescence polarization, fluorescein-MLL peptide displacement from menin | 290,000 tested, under 10 active | FP activity change, % at 61.4 µM; inconclusive = falling polarisation curve, or a change in total fluorescence; inactive = total fluorescence flat and polarisation flat or rising; no compound was filed as active; the % refers to the polarisation; negative = inhibition;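 note: % of control where 0% means no effect; inhibitors lower the polarisation; unlabelled MLL peptide was the positive control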
* hit, by the source's call; u = inconclusive; x = not tested or not shown; [ ] = dose if it differs, or a comment.

SMILES	Sfp PPTase inh	gsp agonist	gsp antag	D2 ag	ClpP mod	PINK1 modulator	Menin-MLL FL inh
CC12CCC(=O)N1C(C(=O)Nc1ccccc1N1CCCC1)CS2 (centres undefined)	x	15%[15.4 µM]	-4%	-2.7	x	2.8%	x
Cc1cc(C)n2c(SCc3ccc(Cl)cc3Cl)nnc2n1	1%	15%	-9%	-5.1	0.5%	5.2%	0.3
COc1ccc2[nH]c(=O)c(CN(Cc3cccnc3)C(=O)Nc3ccccc3)cc2c1	9%	-39%	-16%	1.0	32µM*	0.0%	0.1
COc1cccc(NC(=O)C2(C)CCN2C(C)C)c1OC (centres undefined)	x	x	x	-3.1	2.0%	1.4%	x
CSc1cccc(NC(=O)CSc2ccc(C)cc2)c1	9%	-3%	-10%	-1.4	-5.5%	7.9%	-1.5
Nc1nc(SCC(=O)c2ccc(Br)s2)n[nH]1	-26%	u	6%	7.5	x	0.7%	-1.2
COc1ccc(C(CNC(=O)c2cccc(S(=O)(=O)NCc3ccccc3)c2)N2CCOCC2)cc1 (centres undefined)	x	14%	-8%	-0.9	4.0%	0.3%	x
CC(C)SCc1nc2ccccc2[nH]1	-7%	5%	2%	-0.9	-12%	-1.5%	1.8
CN(C)C(=O)Nc1ccc(F)cc1F	7%	-1%	-2%	2.0	1.3%	-0.2%[38.3 µM]	-0.5
CC(=O)Nc1ccc2c(c1)nc(CN1CCCC1)n2C	-13%	-11%	4%	0.1	-0.7%	-1.2%[38.3 µM]	2.5
COC(=O)c1ccc2nc(NC(=O)CSCC(=O)OCC(=O)c3ccccc3)sc2c1	-14%	-6%	-12%	-4.3	-3.6%	0.2%	3.1
CN1C(=O)C(=O)/C(=C(/O)c2ccccc2)C1c1ccc([N+](=O)[O-])cc1 (centres undefined)	22%	0%	7%	-1.9	0.1%	-0.3%	-1.0
Cc1ccc(C(=O)NC2(C(F)(F)F)NC(=O)N(c3ccc(Cl)cc3)C2=O)cc1 (centres undefined)	22%	-24%	-2%	-2.5	-0.2%	8.6%	-0.9
Cc1ccc(-n2c([S-])c(C(=O)NC(C)c3ccccc3)[n+]3ccccc23)cc1 (centres undefined)	17%	6%	u	-1.2	x	7.5%	-3.0
CCCCNC(=O)C1(C)CCCCN1C(=O)c1csnn1 (centres undefined)	x	x	x	-4.3	-1.2%	-0.3%	x
CN(C)C(=O)c1ccc(N=Nc2c(O)c3ccccc3[nH]c2=O)cc1	x	18%	-23%	-0.6	x	1.3%	x
CCCCn1c(N(CCOC(C)=O)C(C)=O)nc2ccccc21	8%	8%	13%	-2.2	1.5%	1.3%[38.3 µM]	2.1
COC(c1ccccc1)c1c(-c2ccccc2)nn(C)c1Cl (centres undefined)	-1%	-5%	-15%	-1.2	0.4%	-0.9%	-7.2
CC(C)(C)c1csc(NC(=O)C2COc3ccccc3O2)n1 (centres undefined)	9%	5%[15.4 µM]	-21%	-3.6	0.7%	8.6%	x
Cc1cc(N2CCC(C)CC2)c(F)cc1[N+](=O)[O-]	5%	-37%	u	6.7	-1.1%	23%[38.3 µM]	0.1
COc1ccccc1N1CCN(C(=O)CCNS(=O)(=O)c2cc(Br)cnc2N)CC1	10%	13%	-1%	-2.6	-16%	-1.4%	x
CC1CCC(CN2CCN=C2Nc2ccccc2)CC1 (centres undefined)	22%	u	10%	-4.5	-2.0%	-0.2%	1.9
O=C(O)c1ccccc1C=NNc1ccccn1	x	-4%	4%	3.4	-1.9%	-3.2%	x
CC(=O)Nc1ccc(-c2ccnc3c2CC(C)(C(=O)NCc2ccc(F)c(F)c2)O3)cc1 (centres undefined)	x	x	x	5.2	5.0%	7.8%	x
Cc1ccc(C)c(OCC(=O)Nc2ccncc2)c1	9%	-9%	-10%	14	-4.4%	-0.5%	7.1
NC(=O)C1CCN(C(=O)CC2C(=O)NCCN2Cc2cccc(Oc3ccccc3)c2)CC1 (centres undefined)	5%	-14%	4%	-0.4	-8.0%	1.1%	8.0
C[C@H]1CN([C@@H](C)CO)C(=O)c2cc(Br)cnc2O[C@H]1CN(C)S(=O)(=O)c1cccs1	x	u	x	-1.9	0.9%	-0.3%	x
Cc1cc2nnc(SC3CCOC3=O)n2c2ccccc12 (centres undefined)	13%	2%	0%	1.5	16%	4.3%	-1.0
COc1ccc(C(=O)Nn2c(SCC(=O)NC3CCCCC3)nc3ccccc3c2=O)cc1	13%	15%	-9%	-0.4	-9.8%	2.5%[38.3 µM]	2.3
CN(C)c1ccc(CNC(=O)C2(C)Cc3c(-c4ccccc4)ccnc3O2)cc1 (centres undefined)	x	x	x	7.3	0.5%	4.7%	x

Full records, looked up by structure:
`Cc1ccc(C(=O)NC2(C(F)(F)F)NC(=O)N(c3ccc(Cl)cc3)C2=O)cc1` (centres undefined) in the list: Sfp PPTase inh = 22%; gsp agonist = -24%; gsp antag = -2%; D2 ag = -2.5; ClpP mod = -0.2%; PINK1 modulator = 8.6%; Menin-MLL FL inh = -0.9
`COc1ccccc1N1CCN(C(=O)CCNS(=O)(=O)c2cc(Br)cnc2N)CC1` in the list: Sfp PPTase inh = 10%; gsp agonist = 13%; gsp antag = -1%; D2 ag = -2.6; ClpP mod = -16%; PINK1 modulator = -1.4%; Menin-MLL FL inh = x

Later entries.
SMILES	Sfp PPTase inh	gsp agonist	gsp antag	D2 ag	ClpP mod	PINK1 modulator	Menin-MLL FL inh
C[C@@H]1CN([C@@H](C)CO)C(=O)c2cc(NC(=O)CCN3CCOCC3)ccc2O[C@@H]1CN(C)C(=O)Nc1ccccc1	x	x	9%	-4.2	-11%	-0.3%	x
O=C(CN(C(=O)CCC(=O)Nc1nccs1)c1ccccc1F)NCc1ccc(F)cc1	9%	16%[15.4 µM]	2%	-2.3	x	12%	3.1
N#Cc1c2ccc(OCC(N)=O)cc2n2ccccc12	4%	u	-17%	5.7	-8.6%	20%	u
Nc1ccc(Oc2ccc(N)c([N+](=O)[O-])c2)cc1[N+](=O)[O-]	x	u	x	-8.5	-0.3%	-0.3%	x
Cn1ccc(-c2cc(C(=O)O)c3ccccc3n2)n1	-12%	-2%	5%	2.0	x	-1.9%	-0.1
COc1cc(/C=N/NC(=O)c2cc(-c3ccccc3Cl)nc3ccccc23)cc(OC)c1O	x	-2%[15.4 µM]	20%	7.5	x	4.7%	x
COC(=O)c1ccc(N2C(=O)CC(N3CCN(C(=O)c4ccco4)CC3)C2=O)cc1 (centres undefined)	6%	27%	3%	-1.9	-2.3%	-0.6%[38.3 µM]	0.6
CN(C)Cc1cc(O)c(CN(C)C)cc1O	25µM*	2%	-8%	-1.5	-19%	0.1%	u
CC1CC(C)CN(C(=O)c2ccc(C(=O)c3ccccc3)cc2)C1 (centres undefined)	x	1%	-12%	4.3	-6.0%	3.1%	x
O=C(Nc1nnc(-c2cccs2)o1)c1cccc(F)c1	x	0%	-2%	-3.3	-2.4%	1.3%	x
CC(C)(C)C(=O)NC1(C(F)(F)F)NC(=O)N(c2ccccc2F)C1=O (centres undefined)	6%	0%[15.4 µM]	9%	-6.6	1.0%	-1.1%	1.3
Cc1ccc2c(N)c(C(=O)N(c3ccccc3)c3ccccc3)sc2n1	u	30%	-2%	-0.9	-12%	-2.0%	5.2
Cc1nc2ccc(S(=O)(=O)NCC(=O)N3CCCC(C)C3)cc2s1 (centres undefined)	-2%	2%	-11%	-1.3	0.0%	1.4%	-1.4
Cc1ccc(O)c(NC(=O)CSc2n[nH]c(C)c2[N+](=O)[O-])c1	0%	-56%[inhibitor]	u	14	x	-1.4%	0.0
Cc1nnc(NCCc2ccccc2)c2ccccc12	3%	-25%	-1%	-2.0	x	-0.3%	3.7
Cc1ccnc(NC(=O)CSc2ccc3c(c2)OCCO3)c1	x	-40%[inhibitor]	-3%	-2.1	-0.1%	-1.0%	x
Cc1ccc(C(=O)NNC(=S)NC(=O)c2ccccc2)cc1	x	3%[15.4 µM]	1%	-5.3	-7.0%	-1.1%	x
CCc1ccc(OCC(=O)NNC(=O)Cc2c(F)cccc2Cl)cc1	x	9%	5%	-5.2	-2.0%	4.3%	x
COC(=O)c1ccc2nc(-c3ccccc3)c(Cc3ccccc3OC)n2c1	x	x	x	-8.9	u	3.9%	x
CCCNC(=O)C(CC)NC(=O)c1cccc([N+](=O)[O-])c1 (centres undefined)	x	x	3%	-2.6	0.2%	0.9%	x
Cc1sc(NC(=O)CSc2nnc(-c3ccc(F)cc3)o2)c(C#N)c1C	u	-2%	u	0.1	-0.5%	0.4%	5.6
CCN(CC)c1ccc(NC(=O)c2ccc(Br)o2)cc1	-2%	5%	-16%	-0.2	0.8%	-4.3%	-0.8
O=C(Nc1ccc(Cl)c(S(=O)(=O)N2CCOCC2)c1)c1cn2ccccc2n1	11%	-9%[15.4 µM]	9%	1.1	x	6.3%	1.6
CC(C)c1ccc(NC(=O)c2cc(Br)ccc2Br)cc1	9%	10%	-21%	-3.8	-1.1%	5.1%	4.7
O=C(CSc1nnc(-c2ccc(Cl)cc2)n1-c1ccc(Cl)cc1)N/N=C/c1ccco1	8%	-36%[inhibitor]	-28%	11	1.2%	0.4%	2.8
O=c1c(-c2cc(F)cc(F)c2)nc2cnc(N3CCOCC3)nc2n1Cc1cccs1	19%	x	x	x	x	3.1%	-5.7
CC(OC(=O)c1ccco1)C(=O)NC1CCCC1 (centres undefined)	5%	3%	10%	-3.1	x	2.9%	-5.7
CC1(NC(=O)CCNC(=O)c2ccc(C(C)(C)C)cc2)CCS(=O)(=O)C1 (centres undefined)	x	10%	7%	-3.7	0.6%	-0.5%	x
CCOC(=O)c1nn(-c2ccc(OCC)cc2)c2nc(CC(C)C)c(C#N)c(=O)n12	50µM*	22%	18%	1.3	22µM*	-0.8%[38.3 µM]	6.7
CC1CCCC(C)N1CC(O)COc1c(F)cc(Br)cc1F (centres undefined)	16%	-9%[15.4 µM]	7%	0.8	x	-0.4%	1.4
C/C(=N\N=C\c1ccc(N(C)C)cc1)c1cccc([N+](=O)[O-])c1	u	0%	7%	-2.0	-1.9%	17%	6.8

Random draw from the library. About 5.1% of those tested had a hit in this group.
